Source: PubChem (Broad Institute)
Tgondii IFNg: T. gondii growth inhibition under IFN-gamma | AID 1259416 | 69,000 tested, 3.8% active | activity change, negative = inhibition, %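 (about 20 µM by stock and volumes)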 | Toxoplasma gondii growth in IFN-gamma-treated host cells; hits give low values; reference of the scale not given here;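 active = below -70%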;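 also: host cells are HeLa cells infected with Toxoplasma gondii; parasite growth read as luciferase light; one replicate is shown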
Starred values were filed as active, the others as inactive; i = inactive; & = joins results of further samples.

SMILES	Tgondii IFNg
CC(C)N1CCN(Cc2ccc(C(=O)N3CCC(N4CCCCC4)CC3)cc2)C(=O)C1=O	-2
COCCNC(=O)c1sc2ccccc2c1C1CN(C(=O)c2cnn(C)c2)CCO1 (stereo not drawn)	-6
CC(=O)OC(c1ccccc1)c1cc2ccc1CCc1ccc(cc1)CC2 (stereo not drawn)	6
COc1ccc(C2CC(=O)Nc3c2c(C)nn3-c2ccc(C)cc2)cn1 (stereo not drawn)	-51
O=C(CSc1nnc(Cc2ccccc2)o1)Nc1nc(-c2ccccc2)cs1	26
O=C(c1ccoc1)N1CCn2c(Cn3cncn3)cnc2C1	-4
CN1CC2(CCN(C(=O)c3ccno3)CC2)OCC1=O	1
COc1cccc(CN2CCC(CN)C2)c1O (stereo not drawn)	-49
CC(c1ccncc1)N(C)CC1CCNCC1 (stereo not drawn)	-1
Cc1ccccc1NC(=O)c1c(O)c2cccnc2n(-c2ccc(F)cc2)c1=O	126
Cn1cc(N2C[C@@H]3CN(C(=O)c4cccs4)C[C@@H]3C2=O)cn1	-25
C/C=C/c1ccc([C@H]2[C@@H](CO)N(C(C)=O)[C@H]2CNC(=O)c2ccccc2)cc1	17
O=C(c1cc(C2CC2)on1)N1CCC(c2cc(Cc3ccccc3)[nH]n2)CC1	8
Cn1ccnc1C(NC(=O)c1cn[nH]c1-c1cccc(F)c1)C1CC1 (stereo not drawn)	3
CN(C)C[C@@H]1CC2CN(Cc3nccn3C)CCC2N1C (stereo partly drawn)	-2
OC1CN(C(c2ccccc2)c2ccccc2)C1	-32
COCCN1C[C@@H]2[C@@H](C1)C(=O)N(C)C21CCN(C(=O)Nc2ccccc2Cl)CC1	30
CC(/C=C1\SC(=O)N(CCCC(=O)O)C1=O)=C\c1ccccc1	-82*
COc1ccc(C(=O)N(c2ccc(F)cc2F)C2(C(=O)NCc3ccccc3)CCN(C(C)=O)CC2)cc1	-8
Cc1n[nH]c(C)c1CNC(=O)C(C)N1C(=O)c2cccc3cccc1c23 (stereo not drawn)	5
CN(C(=O)CCC(=O)NC1CCCCCC1)C1CC(C)(C)NC(C)(C)C1	-2
Cc1noc(C)c1CCNc1ncc2c(n1)c1ccc(Cl)cc1n1ccnc21	-73*
COc1ccc(S(=O)(=O)N2CCC(c3nc(C(=O)N4CCCC4)c(C)o3)CC2)cc1	0
COc1ncccc1C(Cc1ccsc1)NC(=O)C1CCS(=O)(=O)C1 (stereo not drawn)	68
Clc1ccccc1Cn1nnc2c(Sc3nc4ccccc4s3)ncnc21	73
Cc1nnc(SCC(=O)N2Cc3cnc(C(C)(C)C)nc3C2)s1	-1
CCC(C)C1N=C2c3ccccc3N=C(SCc3cc(=O)n4cc(Br)ccc4n3)N2C1=O (stereo not drawn)	-5
COCCN1C(=O)CCc2cc(NC(=O)CCc3ccccc3)ccc21	11
CCN(C)c1ncnc2c1CCN(c1ncccn1)CC2	-47
CN(C)C(=O)c1ccc2ncnc(N3CCCCC3)c2c1	-19
COCCNc1ccnc(C2COCCN2Cc2ccccc2F)n1 (stereo not drawn)	-5
CO[C@@H]1CN(C)C(=O)c2cc(NS(=O)(=O)c3cn(C)cn3)ccc2OC[C@@H](C)N(Cc2cccc(C(F)(F)F)c2)C[C@H]1C	-12
O=C1CNC(=S)N1CCc1ccccn1	19
Cc1ccc(Nc2nc(-c3nnc(-c4ccccc4)o3)nc3ccccc23)cc1C	-22
C[C@@H]1CCCCO[C@@H](CN(C)C(=O)c2ccncc2)[C@H](C)CN([C@H](C)CO)C(=O)c2cc(NC(=O)CCC(F)(F)F)ccc2O1	161
CC(C)Oc1ccc(CNc2nc(-c3nnc(-c4ccccc4)o3)nc3ccccc23)cc1	-19
CCN(CC1CCOCC1)C(=O)CCn1c(C)cc(C)nc1=O	4
Cc1ccnc(NC(=O)C2c3ccccc3Oc3ccccc32)c1	-32
C[C@H]1CC=CC[C@H](c2ccc(F)cc2)NC(=O)[C@@H](Cc2ccccc2)N(C)C(=O)c2ccccc2O1 (mixture of isomers)	-30
CSc1scc(N)c1S(=O)(=O)C(C)C	48
CO[C@H](CN(C)C(=O)c1cnccn1)[C@H](C)CN([C@@H](C)CO)S(=O)(=O)c1ccccc1	71
CCN1C(=O)C(c2ccccc2)CC12CCN(CCO)CC2 (stereo not drawn)	0
CC(=O)NCCn1cnc(-c2ccccc2)c1/C(C)=C/c1ccco1	9
CCN1c2ccc(C)cc2C(=O)NC12CCN(C(=O)Cc1ccc(C)cc1)CC2	-9
CC(C(=O)N1CCCn2nc(C(=O)Nc3ccccc3)cc2C1)n1cncn1 (stereo not drawn)	110
O=C(CN1C(=O)CCc2cc(S(=O)(=O)N3CCCC3)ccc21)N1CC=C(c2ccccc2)CC1	-7
COc1ccc(OC)c(-c2cc(N)nc3[nH]ccc23)c1	-27
CCOc1ccc(C(=O)N2CCC3(CC2)NC(=O)c2cc(C)ccc2N3CC)cc1	-19
Cc1cccc(N2CC3(CCN(C(=O)NCc4ccccc4)C3)CC2=O)c1 (stereo not drawn)	3
O=C(O)c1ccc(NS(=O)(=O)c2cccc(C(=O)O)c2)cc1	-4
The results go on:
SMILES	Tgondii IFNg
CCN(CC)C(=O)[C@@H]1C[C@H](N)CN1C(=O)Cn1c(=O)cc(C)c2ccccc21	7
CC1=NOC(C(=O)Nc2ccc(NC(=O)c3coc(C)c3)cc2)C1 (stereo not drawn)	7
Cc1cc(CNC(=O)c2cn(Cc3cccc4ccccc34)nn2)n[nH]1	-5
CN1CCC2(CC1)CN(C(=O)c1ccccc1-c1ncc[nH]1)CCCN2C	1
CO[C@H]1CN(C)C(=O)c2ccc(NC(=O)c3ccno3)cc2OC[C@H](C)N(S(C)(=O)=O)C[C@@H]1C	22
CCN(CC)C(=O)CC1CC2(CCN(S(=O)(=O)c3cccs3)CC2)c2ccccc21 (stereo not drawn)	20
CC(C)N(C)Cc1cnc2n1CCN(C(=O)C1CCOCC1)C2C (stereo not drawn)	7
O=C(c1ccccc1)N1CCc2c([nH]c3ccccc23)C1c1ccc(Cl)cc1 (stereo not drawn)	-99*
O=C(C[C@H]1CC[C@H]2[C@@H](COC[C@@H](O)CN2C(=O)Cc2ccccc2)O1)NC1Cc2ccccc2C1	-3
CCOC(=O)N1CCC2(CC1)OC(=O)C(C)=C2C(=O)NCc1ccccc1OC	-10
Cc1ccccc1NC(=O)c1cncc(NS(=O)(=O)c2ccc(Br)cc2)c1	1
CCc1cccc(NC(=O)CN2CCC3(CC2)N=C(c2ccc(C)cc2)C(=O)N3)c1	63
CCn1ncc(CN2CCc3nc(C(C)C)[nH]c(=O)c3CC2)c1C	19
Cc1ccc(C)c(NC(=O)C(=O)NCCc2sc(-c3cccc(F)c3)nc2C)c1	-17
C=CCC(c1ccccc1)N(C(C)=O)c1ccco1 (stereo not drawn)	0
O=C(Nc1ccccc1)c1cc([N+](=O)[O-])ccc1Cl	14&23
CC[C@H]1C/C=C\C[C@@H](c2ccc(OC)cc2OC)NC(=O)[C@H](C)CC(=O)N1	-38
O=C(NCc1cccnc1)C1CCN(Cc2cc3ccccc3n2Cc2cccc(Cl)c2)CC1	1
Cc1nc(N)[nH]c(=O)c1Oc1ccc(Cl)cc1Cl	46
Cn1cc(Cc2nc(C3CC3)n[nH]2)c2ccccc21	8
Cc1cc(NC(=O)C(C)Sc2nc(-c3ccccc3)cc(=O)[nH]2)no1 (stereo not drawn)	-10
Cc1c(C(=O)N2CCc3c(ncnc3N(C)C)C2)cnc2cc(=O)[nH]n12	0
OCCN1CCN(CCCN2c3ccccc3C=Cc3ccccc32)CC1	17
Clc1ccc2c(NCC3CCCO3)nc(CN3CCSCC3)nc2c1 (stereo not drawn)	-8
C[C@@H]1CN([C@@H](C)CO)C(=O)CCCn2cc(nn2)CO[C@H]1CN(C)C(=O)Nc1cccc(C(F)(F)F)c1	54
CN1CCC2(CN(c3ncccn3)CC23CCN(C(=O)c2cccnc2)CC3)C1=O (stereo not drawn)	22
O=C(NCc1cccnc1)c1cc2cc(C34CC5CC(CC(C5)C3)C4)ccc2oc1=O	-63
Cc1oc(-c2ccccc2)nc1CNS(=O)(=O)c1ccc(C(C)C)cc1	-62
O=C(Nc1ccc(Cl)cc1)c1c(O)c2cccnc2n(-c2cccc(F)c2)c1=O	-102*
O=C(Nc1n[nH]c(-c2ccco2)n1)N1CC=C(c2ccccc2)CC1	-1
COCCN1C(=O)N(Cc2ccccc2)C2(CCN(Cc3cnn(-c4ccccc4)c3)CC2)C1=O	11
CCc1nnc(CNC(=O)c2[nH]c3ccccc3c2CC)s1	-6
Cc1cc(C(=O)NCCc2c[nH]c3ccccc23)c2c(=O)n(C)c(=O)n(C)c2n1	37
Cc1ccc2[nH]c(=O)cc(C(=O)N3C[C@@H]4C5CCC(CC5)[C@@H]4C3)c2c1	12
O=C(Cn1ncc2c(N3CCN(c4ccccc4)CC3)ncnc21)Nc1ccc(Cl)cc1F	50
COc1cccc(S(=O)(=O)N[C@@H]2CC[C@H](CC(=O)NC3Cc4ccccc4C3)O[C@@H]2CO)c1	-26
Clc1ccc(-c2nccn2-c2ccc3n[nH]nc3c2)cc1	-9
COCCn1c2c(ccc1=O)CC(NCc1cnn(C)c1)CC2 (stereo not drawn)	41
COc1cc(C(=O)Nc2cc3c(cc2C(C)=O)OCO3)cc(OC)c1OC	30
CC(=O)N1[C@H](CO)[C@@H](c2ccc(C3=CCCCC3)cc2)[C@@H]1CNC(=O)CN(C)C	-16
CO[C@@H]1CC[C@@H]2CCN(C)C(=O)CC3(CCCCC3)CN(C)C(=O)c3cccc(C#N)c3OC[C@@H]1O2	2
CCN1[C@@H]2c3ccc(C4=CCCC4)c(=O)n3C[C@@H]2[C@@H](CO)[C@@H]1C(=O)NC1Cc2ccccc2C1	-8
Cc1noc(C)c1CN(C)Cc1ccc2cccc(O)c2n1	7
CCOC(=O)c1cnn(C(=O)COc2ccc(C)c3c2CCC3)c1N	2
COc1cccc(C(=O)C2CCCN(Cc3cnn(-c4ccc(F)cc4)c3)C2)c1 (stereo not drawn)	11
C=C(C)C[C@@H]1CCn2cc(nn2)COCCNC1=O	35
CCN1CCn2c(C)nc(C(=O)N3CCOC(c4ccc(F)cc4)C3)c2C1=O (stereo not drawn)	4
CNC[C@@H]1OCCCC[C@H](C)Oc2ccc(NC(=O)Nc3ccc(OC)cc3)cc2C(=O)N([C@H](C)CO)C[C@H]1C	220
COc1ccccc1NC(=O)CN1CCC2(CC1)N=C(c1cccc(C)c1)C(=O)N2	35
CN(Cc1cnc(N)nc1)Cc1cn[nH]c1-c1ccccc1	-8
Later entries.
SMILES	Tgondii IFNg
C[C@@H]1CN([C@H](C)CO)C(=O)c2cc(-c3cccc(C(=O)N(C)C)c3)cnc2O[C@@H]1CN(C)C(=O)Cc1ccccn1	91
O=C(Nc1ccccc1C(=O)Nc1cccc2ccccc12)Nc1cccc2ccccc12	135
O=C(Nc1ccc(F)cc1)Nc1nc(SCc2ccc(F)cc2)ns1	-110*
CC(C)C1CC(C(=O)N2CCN(C)C3(CCN(C)CC3)C2)CCO1 (stereo not drawn)	-2
Cc1nn(C(C)CC(=O)Nc2ccnn2Cc2ccc3c(c2)OCO3)c(C)c1Cl (stereo not drawn)	18
O=C(O)C1=CCCNC1	8
Cc1cccc(NC(=O)c2c(O)c3ccccc3n(-c3ccccc3)c2=O)c1C	15
Cc1[nH]ncc1-c1nsc(Nc2ccccc2)n1	i
Cc1nn(-c2ccc(F)cc2)c(C)c1CNC(=O)COc1ccc2c(c1)OCO2	41
CNC(=O)c1ccc(C2CCCN2C(=O)c2cc(CC(C)C)nn2C)s1 (stereo not drawn)	-4
Cc1ccc(S(=O)(=O)NC(C(=O)Oc2ccc3c(C(F)(F)F)cc(=O)oc3c2)c2ccccc2)cc1 (stereo not drawn)	-6
O=C(Nc1c(C(=O)NCc2ccncc2)[nH]c2ccccc12)c1ccc(Cl)cc1	-34
CSc1nc(N)nc(C2COc3ccccc3O2)n1 (stereo not drawn)	i
O=C(O)CSc1nnc(C2CC2)n1-c1ccccc1C(F)(F)F	-47
COCC(=O)N1CC(=O)N2[C@@H](CO)[C@@H](c3ccc(C#CC4CC4)cc3)[C@@H]2C1	-17

Ordered by molecular weight (rising): part of the list above
SMILES	Tgondii IFNg
O=C(O)C1=CCCNC1	8
Cc1[nH]ncc1-c1nsc(Nc2ccccc2)n1	i
C=C(C)C[C@@H]1CCn2cc(nn2)COCCNC1=O	35
CN(Cc1cnc(N)nc1)Cc1cn[nH]c1-c1ccccc1	-8
Cc1noc(C)c1CN(C)Cc1ccc2cccc(O)c2n1	7
CC(C)C1CC(C(=O)N2CCN(C)C3(CCN(C)CC3)C2)CCO1 (stereo not drawn)	-2
CCOC(=O)c1cnn(C(=O)COc2ccc(C)c3c2CCC3)c1N	2
COCC(=O)N1CC(=O)N2[C@@H](CO)[C@@H](c3ccc(C#CC4CC4)cc3)[C@@H]2C1	-17
CNC(=O)c1ccc(C2CCCN2C(=O)c2cc(CC(C)C)nn2C)s1 (stereo not drawn)	-4
O=C(Nc1ccc(F)cc1)Nc1nc(SCc2ccc(F)cc2)ns1	-110*
Cc1cccc(NC(=O)c2c(O)c3ccccc3n(-c3ccccc3)c2=O)c1C	15
COc1cccc(C(=O)C2CCCN(Cc3cnn(-c4ccc(F)cc4)c3)C2)c1 (stereo not drawn)	11
Cc1nn(-c2ccc(F)cc2)c(C)c1CNC(=O)COc1ccc2c(c1)OCO2	41
O=C(Nc1c(C(=O)NCc2ccncc2)[nH]c2ccccc12)c1ccc(Cl)cc1	-34
COc1ccccc1NC(=O)CN1CCC2(CC1)N=C(c1cccc(C)c1)C(=O)N2	35
Cc1nn(C(C)CC(=O)Nc2ccnn2Cc2ccc3c(c2)OCO3)c(C)c1Cl (stereo not drawn)	18
O=C(Nc1ccccc1C(=O)Nc1cccc2ccccc12)Nc1cccc2ccccc12	135
CCN1[C@@H]2c3ccc(C4=CCCC4)c(=O)n3C[C@@H]2[C@@H](CO)[C@@H]1C(=O)NC1Cc2ccccc2C1	-8
Cc1ccc(S(=O)(=O)NC(C(=O)Oc2ccc3c(C(F)(F)F)cc(=O)oc3c2)c2ccccc2)cc1 (stereo not drawn)	-6
CNC[C@@H]1OCCCC[C@H](C)Oc2ccc(NC(=O)Nc3ccc(OC)cc3)cc2C(=O)N([C@H](C)CO)C[C@H]1C	220
C[C@@H]1CN([C@H](C)CO)C(=O)c2cc(-c3cccc(C(=O)N(C)C)c3)cnc2O[C@@H]1CN(C)C(=O)Cc1ccccn1	91

Some of the compounds tested; the hit share may differ from the screen's.
